Yeast UUG start = alters start codon recognition fidelity in yeast; S. cerevisiae UUG-firefly luciferase reporter, luminescence/redox ratio; AID 602363; activity score, % at 18.7 µM; hit rate 0.13% among 350,000;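 active = replicate mean at a twofold rise or more, about +100% in these data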;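 note: firefly luciferase made from a UUG start codon reports start codon fidelity; reporter light over untreated wells divided by growth signal over untreated wells; some hits fall short of that in this replicate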
HIV Env fusion = HIV envelope-mediated fusion inhibition; hit rate 1.1% among 360,000; AID 651610; inhibition, % at 12.3 µM; HeLa-JRFL Env/CEM21 cell fusion, luciferase;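 active = mean replicate inhibition score of at least 50 and every replicate individually at or above 50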;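 note: 0% = plate neutral controls and 100% = maraviroc near 300 nM; one replicate is shown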
Active calls of the source: *; [ ] = another dose, or the depositor's remark. An excerpt (hit frequency here may not be typical).

Each structure is followed by: Yeast UUG start	HIV Env fusion
- C[C@H]1CN([C@@H](C)CO)S(=O)(=O)c2ccc(C#Cc3ccncc3)cc2O[C@@H]1CN(C)S(=O)(=O)c1ccc(F)cc1
→ -9	-4[16.7 µM]
- Cc1ccc(S(=O)(=O)Nc2ccc3c(c2)C(=O)N([C@@H](C)CO)C[C@H](C)[C@@H](CN(C)S(C)(=O)=O)OCCCC[C@@H](C)O3)cc1
→ 10	-33[16.7 µM]
- C[C@@H]1CN([C@H](C)CO)C(=O)Cc2cc(NC(=O)Nc3ccccc3)ccc2O[C@@H]1CN(C)Cc1ccc(-c2ccccc2)cc1
→ 9	13[16.7 µM]
- C[C@H](CO)N1C[C@H](C)[C@H](CN(C)C(=O)c2ccccc2)Oc2cc(C#C[C@@H](C)O)ccc2S1(=O)=O
→ 23	0[16.7 µM]
- C[C@H]1CN([C@@H](C)CO)C(=O)c2cc(NC(=O)Nc3ccccc3)ccc2O[C@@H]1CN(C)S(=O)(=O)c1ccc(F)cc1
→ 2	-22[16.7 µM]
- C[C@@H]1CN([C@@H](C)CO)C(=O)c2cc(NS(=O)(=O)c3ccc(Cl)cc3)ccc2O[C@@H](C)CCCCO[C@@H]1CN(C)Cc1ccc(C(=O)O)cc1
→ 3	-23[16.7 µM]
- CCCNC(=O)C[C@@H]1CC[C@H]2[C@@H](COc3ccc(NC(=O)c4ccccc4)cc3C(=O)N2C)O1
→ 7	8[16.7 µM]
- CO[C@H]1CN(C)C(=O)c2ccc(NC(=O)C3CC3)cc2OC[C@H](C)N(C(C)=O)C[C@H]1C
→ 4	-1[16.7 µM]
- CC(C)C#Cc1ccc2c(c1)O[C@@H](CN(C)C(=O)NC(C)C)[C@H](C)CN([C@@H](C)CO)S2(=O)=O
→ 10	-26[16.7 µM]
- C[C@H](CO)N1C[C@H](C)[C@H](CN(C)C(=O)CC2CC2)Oc2ncc(C#CC(C)(C)O)cc2C1=O
→ 5	-5[16.7 µM]
- COc1ccc(NC(=O)Nc2ccc3c(c2)CC(=O)N([C@@H](C)CO)C[C@H](C)[C@@H](CN(C)Cc2ccc4c(c2)OCO4)O3)cc1
→ 24	-8[16.7 µM]
- Cc1ccc(S(=O)(=O)N(C)C[C@H]2Oc3c(cccc3N(C)C)C(=O)N([C@H](C)CO)C[C@H]2C)cc1
→ -2	11[16.7 µM]
- CCNC(=O)C[C@H]1CC[C@H]2[C@@H](COc3ccc(NC(=O)c4ccc5c(c4)OCO5)cc3C(=O)N2C)O1
→ -2	6[16.7 µM]
- CCCC#Cc1ccc2c(c1)O[C@H](CN(C)C(C)=O)[C@@H](C)CN([C@H](C)CO)S2(=O)=O
→ 8	-1[16.7 µM]
- C/C=C/c1ccc([C@@H]2[C@@H](C#N)N(C(=O)NC3CCCC3)[C@@H]2CO)cc1
→ -1	4[16.7 µM]

Some values from above:
For Yeast UUG start, CCNC(=O)C[C@H]1CC[C@H]2[C@@H](COc3ccc(NC(=O)c4ccc5c(c4)OCO5)cc3C(=O)N2C)O1 has -2
For HIV Env fusion, C[C@H]1CN([C@@H](C)CO)C(=O)c2cc(NC(=O)Nc3ccccc3)ccc2O[C@@H]1CN(C)S(=O)(=O)c1ccc(F)cc1 has -22[16.7 µM]
For Yeast UUG start, C[C@H](CO)N1C[C@H](C)[C@H](CN(C)C(=O)c2ccccc2)Oc2cc(C#C[C@@H](C)O)ccc2S1(=O)=O has 23

(further entries)
Each structure is followed by: Yeast UUG start	HIV Env fusion
- COc1ccc(NC(=O)Nc2ccc3c(c2)C(=O)N([C@H](C)CO)C[C@@H](C)[C@H](CN(C)Cc2ccncc2)OCCCC[C@@H](C)O3)cc1
→ 3	-10[16.7 µM]
- C[C@H]1CN([C@@H](C)CO)C(=O)c2cc(NS(=O)(=O)c3ccccc3)ccc2O[C@@H]1CN(C)Cc1ccc2c(c1)OCO2
→ -3	6[16.7 µM]
- COC(=O)c1c2oc(c1C(=O)OC)C(=O)N(C)Cc1cn(nn1)C[C@H](Cc1ccccc1)NC(=O)N[C@H](CO)CC2
→ 41	-31[16.7 µM]
- Cc1noc(C)c1S(=O)(=O)Nc1ccc2c(c1)C(=O)N([C@H](C)CO)C[C@H](C)[C@@H](CN(C)C(=O)NC(C)C)OCCCC[C@@H](C)O2
→ -7	-28[16.7 µM]
- C[C@@H]1CN([C@H](C)CO)C(=O)c2cccc(NS(=O)(=O)c3cccs3)c2O[C@@H]1CN(C)Cc1ccccc1
→ -10	-1[16.7 µM]
- C[C@@H]1CN([C@H](C)CO)C(=O)c2cc(NC(=O)Cc3ccccc3)ccc2O[C@@H](C)CCCCO[C@H]1CN(C)C(=O)NC1CCCCC1
→ 2	9[16.7 µM]
- C[C@@H]1CN([C@H](C)CO)C(=O)c2cc(NS(=O)(=O)c3ccc(F)cc3)ccc2O[C@@H]1CN(C)Cc1ccc(C(F)(F)F)cc1
→ -3	-10[16.7 µM]
- C[C@H]1CN([C@@H](C)CO)C(=O)c2cc(NC(=O)C3CC3)ccc2O[C@H]1CN(C)S(=O)(=O)c1cccs1
→ 25	-17[16.7 µM]
- C[C@H](CO)N1C[C@H](C)[C@H](CN(C)C(=O)NC2CCCCC2)Oc2ccc(NC(=O)Nc3ccc4c(c3)OCO4)cc2CC1=O
→ -1	-25[16.7 µM]
- CN(C)C(=O)C[C@@H]1CC[C@@H](NC(=O)Nc2cccc(F)c2)[C@@H](CO)O1
→ -9	-35[16.7 µM]
- CCCN(C)C[C@@H]1OCCCC[C@@H](C)Oc2ccc(NS(C)(=O)=O)cc2C(=O)N([C@@H](C)CO)C[C@@H]1C
→ 10	-12[16.7 µM]
- C[C@H]1CN([C@@H](C)CO)C(=O)c2cc(/C=C/c3ccccc3)cnc2O[C@H]1CN(C)C(=O)Nc1ccccc1F
→ 11	-4[16.7 µM]
- C/C=C/c1cnc2c(c1)C(=O)N([C@H](C)CO)C[C@@H](C)[C@@H](CN(C)C(=O)Cc1cccnc1)O2
→ -10	-15[16.7 µM]
- Cc1ccc(S(=O)(=O)N(C)C[C@@H]2OCCCC[C@H](C)Oc3ccc(NS(C)(=O)=O)cc3C(=O)N([C@@H](C)CO)C[C@@H]2C)cc1
→ 28	23[16.7 µM]
- C[C@@H]1CN([C@H](C)CO)C(=O)c2cc(Br)cnc2O[C@H]1CN(C)S(=O)(=O)c1ccccc1
→ 4	1[16.7 µM]

Pulled by compound from the list above:
Each structure is followed by: Yeast UUG start	HIV Env fusion
- C[C@@H]1CN([C@H](C)CO)C(=O)c2cc(Br)cnc2O[C@H]1CN(C)S(=O)(=O)c1ccccc1
→ 4	1[16.7 µM]
- CCCNC(=O)C[C@@H]1CC[C@H]2[C@@H](COc3ccc(NC(=O)c4ccccc4)cc3C(=O)N2C)O1
→ 7	8[16.7 µM]
- C[C@@H]1CN([C@H](C)CO)C(=O)c2cc(NC(=O)Cc3ccccc3)ccc2O[C@@H](C)CCCCO[C@H]1CN(C)C(=O)NC1CCCCC1
→ 2	9[16.7 µM]

(further entries)
Each structure is followed by: Yeast UUG start	HIV Env fusion
- COCC(=O)N1C[C@H](C)[C@H](OC)CN(C)C(=O)c2cc(NS(C)(=O)=O)ccc2OC[C@H]1C
→ -12	-6[16.7 µM]
- CCCC(=O)Nc1ccc2c(c1)C(=O)N(C)[C@H]1CC[C@@H](CC(=O)NCC(F)(F)F)O[C@@H]1CO2
→ -2	9[16.7 µM]
- COc1ccc(CN(C)C[C@H]2Oc3c(NC(=O)Nc4ccc5c(c4)OCO5)cccc3C(=O)N([C@H](C)CO)C[C@@H]2C)cc1
→ -14	5[16.7 µM]
- C[C@@H]1CCCCO[C@H](CN(C)S(=O)(=O)c2cccs2)[C@@H](C)CN([C@@H](C)CO)C(=O)c2cc(NS(C)(=O)=O)ccc2O1
→ 9	-50[16.7 µM]
- C[C@@H]1CCCCO[C@@H](CN(C)C(=O)C2CCCCC2)[C@H](C)CN([C@H](C)CO)C(=O)c2cc(NC(=O)Cc3ccccc3)ccc2O1
→ 14	-36[16.7 µM]
- C[C@@H]1CN([C@H](C)CO)C(=O)c2cc(NS(C)(=O)=O)ccc2O[C@@H](C)CCCCO[C@H]1CN(C)S(=O)(=O)c1cccs1
→ 7	-7[16.7 µM]
- CCCN(C)C[C@@H]1Oc2ncc(C#CCOC)cc2C(=O)N([C@H](C)CO)C[C@@H]1C
→ 2	-8[16.7 µM]
- C[C@H](CO)N1C[C@H](C)[C@H](CN(C)C(=O)C2CC2)Oc2cc(C#Cc3cccnc3)ccc2S1(=O)=O
→ -1	-12[16.7 µM]
- COc1ccc(NC(=O)Nc2cccc3c2O[C@@H](CN(C)S(=O)(=O)c2ccccc2)[C@@H](C)CN([C@H](C)CO)C3=O)cc1
→ 3	-7[16.7 µM]
- C[C@@H]1CCCCO[C@H](CN(C)C(=O)Nc2ccc3c(c2)OCO3)[C@@H](C)CN([C@H](C)CO)C(=O)c2cc(NS(=O)(=O)c3ccc(Cl)cc3)ccc2O1
→ -10	-73[16.7 µM]
- CC(C)CC#Cc1ccc2c(c1)O[C@@H](CN(C)C(=O)C1CCCCC1)[C@H](C)CN([C@@H](C)CO)S2(=O)=O
→ -11	57*[16.7 µM]
- CO[C@@H]1CN(C)C(=O)c2cc(NC(=O)c3ccccc3)ccc2OC[C@H](C)N(C(=O)C2CC2)C[C@H]1C
→ 6	-3[16.7 µM]
- C[C@@H]1CCCCO[C@H](CN(C)C(=O)CCCN(C)C)[C@@H](C)CN([C@H](C)CO)C(=O)c2cc(NC(=O)Nc3cccc4ccccc34)ccc2O1
→ 29	-13[16.7 µM]
- CO[C@H]1CN(C)C(=O)c2ccc(NC(C)=O)cc2OC[C@@H](C)N(CC2CC2)C[C@H]1C
→ -2	14[16.7 µM]
- COc1ccc(S(=O)(=O)N(C)C[C@H]2Oc3ccc(NC(=O)c4ccncc4)cc3CC(=O)N([C@H](C)CO)C[C@@H]2C)cc1
→ -1	-11[16.7 µM]

Profiles, quoted from the list:
`COCC(=O)N1C[C@H](C)[C@H](OC)CN(C)C(=O)c2cc(NS(C)(=O)=O)ccc2OC[C@H]1C` is listed as Yeast UUG start = -12; HIV Env fusion = -6[16.7 µM]
`CCCC(=O)Nc1ccc2c(c1)C(=O)N(C)[C@H]1CC[C@@H](CC(=O)NCC(F)(F)F)O[C@@H]1CO2` is listed as Yeast UUG start = -2; HIV Env fusion = 9[16.7 µM]

Remaining list, next part
SMILES	Yeast UUG start	HIV Env fusion
Cc1noc(C)c1S(=O)(=O)Nc1ccc2c(c1)C(=O)N([C@H](C)CO)C[C@@H](C)[C@@H](CN(C)Cc1ccc3c(c1)OCO3)OCCCC[C@@H](C)O2	25	18[16.7 µM]
COc1ccc(S(=O)(=O)N(C)C[C@H]2Oc3ccc(NS(=O)(=O)c4ccc(Cl)cc4)cc3CC(=O)N([C@H](C)CO)C[C@@H]2C)cc1	-14	2[16.7 µM]
COc1ccccc1-c1cnc2c(c1)C(=O)N([C@@H](C)CO)C[C@H](C)[C@@H](CN(C)C(=O)c1ccccc1)O2	50	14[16.7 µM]
N#C[C@H]1[C@H](c2ccc(-c3ccc(F)cc3)cc2)[C@@H](CO)N1C(=O)Cc1ccccc1	-7	-8[16.7 µM]
O=C(O)C[C@@H]1CC[C@@H](NC(=O)c2ccccc2F)[C@H](CO)O1	-17	14[16.7 µM]
C[C@H](CO)N1C[C@H](C)[C@H](CN(C)S(=O)(=O)c2ccc(F)cc2)Oc2ccc(NS(=O)(=O)c3ccc(Cl)cc3)cc2CC1=O	18	59*[16.7 µM]
CCC(=O)N(C)C[C@H]1Oc2ncc(C#Cc3ccncc3)cc2C(=O)N([C@H](C)CO)C[C@H]1C	-16	-20[16.7 µM]
C[C@@H]1CN([C@@H](C)CO)C(=O)c2cc(N(C)C)ccc2O[C@H]1CN(C)Cc1ccc(C(=O)Nc2ccccc2N)cc1	6	9[16.7 µM]
C[C@@H]1CN([C@@H](C)CO)C(=O)c2cc(-c3ccc(C(=O)N(C)C)cc3)cnc2O[C@H]1CN(C)C(=O)C1CC1	24	-41[16.7 µM]
C[C@@H]1CN([C@H](C)CO)C(=O)c2cc(NC(=O)Nc3ccc4c(c3)OCO4)ccc2O[C@H]1CN(C)S(=O)(=O)c1ccc(Cl)cc1	-11	9[16.7 µM]
C[C@@H]1CN([C@H](C)CO)C(=O)c2cccc(NC(=O)Nc3cccc4ccccc34)c2O[C@@H]1CN(C)C(=O)Nc1ccccc1	-13	-34[16.7 µM]
C[C@H](CO)N1C[C@H](C)[C@@H](CN(C)C(=O)C2CCC2)Oc2ncc(C#Cc3cccc(F)c3)cc2C1=O	2	10[16.7 µM]
Cc1ccc(S(=O)(=O)N(C)C[C@H]2Oc3c(NS(=O)(=O)c4ccc(Cl)cc4)cccc3C(=O)N([C@H](C)CO)C[C@@H]2C)cc1	-12	-32[16.7 µM]
Cc1noc(C)c1NC(=O)Nc1ccc2c(c1)C(=O)N([C@@H](C)CO)C[C@H](C)[C@H](CN(C)Cc1ccc(C(F)(F)F)cc1)OCCCC[C@H](C)O2	9	39[16.7 µM]
O=C(C[C@@H]1C=C[C@H](NC(=O)C2CC2)[C@@H](CO)O1)NCC1CC1	-10	-8[16.7 µM]
CO[C@@H]1CN(C)C(=O)c2cc(NC(C)=O)ccc2OC[C@@H](C)N(Cc2ccccc2C(=O)O)C[C@@H]1C	-6	13[16.7 µM]
C[C@H](CO)N1C[C@H](C)[C@H](CN(C)C(=O)C2CC2)Oc2cc(C#CC3CC3)ccc2S1(=O)=O	21	2[16.7 µM]
C[C@@H]1CCCCO[C@@H](CN(C)C(=O)CCC(F)(F)F)[C@H](C)CN([C@H](C)CO)C(=O)c2cc(NC(=O)NC3CCCCC3)ccc2O1	22	3[16.7 µM]
Cc1noc(C)c1NC(=O)Nc1ccc2c(c1)C(=O)N([C@@H](C)CO)C[C@@H](C)[C@@H](CN(C)Cc1ccc(C(F)(F)F)cc1)OCCCC[C@H](C)O2	-8	-12[16.7 µM]
COc1ccc(NC(=O)Nc2ccc3c(c2)[C@H]2C[C@@H](CC(=O)NCc4ccccc4F)O[C@@H](CO)[C@H]2O3)cc1	-9	-2[16.7 µM]
COc1ccc(S(=O)(=O)Nc2ccc3c(c2)C(=O)N([C@H](C)CO)C[C@@H](C)[C@H](CN(C)S(=O)(=O)c2cn(C)cn2)OCCCC[C@@H](C)O3)cc1	-6	6[16.7 µM]

Screens as filed in PubChem.
